# CSC inhib = cancer stem cell viability inhibitors, primary screen, luminescence | actives 1.1% (n = 300,000) | inhibition, % at 7.5 µM | AID 2717, 2010 | cancer stem cell-like cells viability;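 active means mean at 75% or more and at least half the replicates too; inconclusive means mean and replicates disagree; tested in HMLE shEcad cells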;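 further: 0% = median of negative and 100% = median of positive control wells; the first replicate is given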
# Env fusion inh = inhibitors of HIV-1 Env-driven cell-cell fusion, primary screen, HeLa-JRFL effector, CEM21 target cells, luciferase | inhibition, % at 12.3 µM | AID 651610, 2012 | actives 1.1% (n = 360,000);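 active means mean replicate inhibition score of at least 50 and every replicate individually at or above 50; inconclusive means only one of the two criteria met; inactive means mean below 50 and not all replicates reaching 50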;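 further: 0% = plate neutral controls and 100% = maraviroc near 300 nM; one replicate is shown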
# eIF4H inh = human eIF4H binding inhibitors, primary screen, translation initiation inhibitor project, biochemical, uHTS, fluorescence polarization | Eukaryotic translation initiation factor 4H (Homo sapiens), Q15056 | eIF4H fluorescence polarization binding assay | inhibition, % at 35 µM | actives 0.94% (n = 290,000) | AID 2012, 2009;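 active means 50% or more with normal probe brightness, or confirmed in later tests; inconclusive means above 50% with abnormal brightness, or retests that disagree; inactive means below 50% or failed in later tests; about a fifth of its hits are not listed in these tables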;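 further: calls also rest on retests at 20 µM and on dose response follow-up; 0% = protein and probe with vehicle and 100% = probe without protein; strong numbers were not always called active; many hits fall short of the cut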
# MT1-MMP act inh = blockers of MT1-MMP proenzyme processing, primary screen, HT1080 RFP-PRO-GFP cells, GFP/RFP fluorescence; GFP/RFP ratio fluorescence, overnight; percent of plate control window, DMSO zero; actives 0.061% (n = 360,000); Matrix metalloproteinase-14 (Homo sapiens), P50281; GFP/RFP ratio change, % at 20 µM;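 active means GFP/RFP ratio change of at least 30% with cell ATP level not reduced by more than half and red fluorescence within 50% of control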; further: strong numbers were not always called active
#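 Compound: 20 µM single dose, 1% DMSO / System: HT1080 RFP-PRO-GFP cells / Controls: DMSO and RFP-L50D-GFP cell wells / Read-out basis: GFP/RFP fluorescence ratio / Schedule: overnight compound exposure at 37 °C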
# UUG fidelity = modulators of yeast start codon fidelity, primary screen, whole organism, S. cerevisiae, single point, plate reader; actives 0.13% (n = 350,000); activity score, % at 18.7 µM; S. cerevisiae UUG-firefly luciferase reporter, luminescence/redox ratio;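 active means replicate mean at a twofold rise or more, about +100% in these data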;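 further: firefly luciferase made from a UUG start codon reports start codon fidelity; reporter light over untreated wells divided by growth signal over untreated wells; some hits fall short of that in this replicate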
# PABP FP inh = PABP poly(A) RNA binding inhibitors, primary screen, biochemical, fluorescence polarization, uHTS. Polyadenylate-binding protein 1 (Homo sapiens), P11940. inhibition, % at 35 µM. actives 1% (n = 290,000). AID 2014, 2009;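 active means 50% or more with normal probe brightness, or confirmed in later tests; inconclusive means above 50% with abnormal brightness, or retests that disagree; inactive means below 50% or failed in later tests; about a fifth of its hits are not listed in these tables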;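 further: calls also rest on retests at 20 µM and on dose response follow-up; controls were probe without protein and protein plus probe with vehicle; some compounds called inactive have numbers as strong as hits; many hits fall short of the cut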
# Target sequence (P11940 whole entry, looked up): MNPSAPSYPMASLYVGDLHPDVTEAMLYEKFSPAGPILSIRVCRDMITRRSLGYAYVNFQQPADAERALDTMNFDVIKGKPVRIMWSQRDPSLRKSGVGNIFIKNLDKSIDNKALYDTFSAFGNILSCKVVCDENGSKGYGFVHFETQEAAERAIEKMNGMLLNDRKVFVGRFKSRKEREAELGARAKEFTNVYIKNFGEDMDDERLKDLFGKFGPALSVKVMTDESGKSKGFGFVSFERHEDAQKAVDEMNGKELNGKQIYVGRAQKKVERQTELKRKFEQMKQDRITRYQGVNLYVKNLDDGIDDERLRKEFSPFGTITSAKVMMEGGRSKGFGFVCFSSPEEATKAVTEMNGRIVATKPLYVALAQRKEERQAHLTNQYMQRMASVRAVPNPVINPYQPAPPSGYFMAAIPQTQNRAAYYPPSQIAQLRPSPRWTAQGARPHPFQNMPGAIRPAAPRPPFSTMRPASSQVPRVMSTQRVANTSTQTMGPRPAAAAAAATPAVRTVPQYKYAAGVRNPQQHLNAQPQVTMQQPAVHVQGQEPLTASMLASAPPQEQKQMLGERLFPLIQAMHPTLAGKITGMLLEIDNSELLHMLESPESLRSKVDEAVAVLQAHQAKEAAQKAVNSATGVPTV
# Rce1 inhib = yeast Rce1p protease inhibitors, primary screen, biochemical, fluorescence, cell-free homogeneous. CAAX prenyl protease 2 (Saccharomyces cerevisiae (strain ATCC 204508 / S288c)), Q03530. calls only. AID 2563, 2010. actives 0.27% (n = 290,000). yeast membranes, quenched prenylated peptide cleavage fluorescence;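 active means fall in fluorescence gain of 50% or more versus controls, with final raw signal at or below 3038400; inconclusive means same 50% fall but final raw signal above 3038400; inactive means fall in fluorescence gain under 50%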;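 further: plate controls were neutral control wells for no effect and wells lacking membranes for full effect; tested at 10 µM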
# eIF4H inh retest = second read-out of eIF4H inh, no call of its own (marks repeat the call); inhibition, %; compound at 20 µM; confirmation average;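 mean of two retest wells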
# PABP FP inh retest = also measured in PABP FP inh; calls as there; inhibition, %; compound at 20 µM; confirmation repeats;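 mean of two retest wells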
# MT1-MMP act inh RFP = second read-out of MT1-MMP act inh, no call of its own (marks repeat the call); RFP signal change, %; measured here: RFP expression control read;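 0 = vehicle wells; hits needed this value within 50% of zero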
# Starred values were filed as active, the others as inactive; i = inactive; ? = inconclusive; . = not tested or not shown; & = joins results of further samples; [ ] = dose if it differs, or a comment.
SMILES,CSC inhib,Env fusion inh,eIF4H inh,MT1-MMP act inh,MT1-MMP act inh RFP,UUG fidelity,PABP FP inh,Rce1 inhib,others
Clc1ccc(COc2ccccc2-c2ccnc3ncnn23)cc1,3,9,-4,0,-2,.,43,i,
CCCc1cc(=O)n2[nH]c(C)c(-c3ccccc3OC)c2n1,.,-6,.,-1,1,-3,.,.,
COc1ccc(C(=O)Nc2cccc3nc(C)ccc23)c(OC)c1,15,11,-6,4,-5,-6,14,i,
CCS(=O)(=O)N1Cc2ccccc2CC1C(=O)Nc1ccc(F)cc1 (stereo unspecified),24,-5,-8,-1,0,.,2,i,
O=C(CN1C(=O)CSC1=O)Nc1ccccc1N1CCOCC1,-9,-56,-6,2,4,-6,-6,i,
COc1cc(OC)c(C2C(C#N)=C(N)Oc3cc(C)n(CCCN4CCOCC4)c(=O)c32)cc1OC (stereo unspecified),-7,-8,?,6,3,-23,87,i,PABP FP inh retest=17
Cc1ccc(S(=O)(=O)N(C)C[C@@H]2OCc3cnnn3CCCC(=O)N([C@H](C)CO)C[C@H]2C)cc1,.,-14[16.7 µM],.,5,4,-17&-1,.,.,
Cc1ccc(C(=O)n2c(=S)nc3ccccn32)cc1,.,.,-1,.,.,.,-2,i,
Cc1ccc(N=CC=C2OC(C)(C)C(C)(C)O2)cc1,19,18,2,.,.,-31,6,i,
Cc1cnc(C(=O)OCC(=O)Nc2ccc(C)c(S(=O)(=O)N3CCCCCC3)c2)cn1,-14,5,0,4,3,-15,0,i,
CCCCC(=O)N(C)c1c(CC)nc2c(OCc3cccc(Cl)c3)cccn12,.,11,.,-4,-12,-21,.,.,
COc1ccc(S(=O)(=O)n2nc(OC(=O)c3ccncc3)cc2N)cc1,-8,-2,0,7,0,-20,1,i,
O=C(O)c1ccccc1S(=O)CCO (stereo unspecified),-8,-36,-4,0,6,-20,16,i,
Cc1cc(SCC(=O)N(C)c2c(N)n(Cc3ccccc3)c(=O)[nH]c2=O)nc2ccccc12,-19,-39,5,0,-2,.,9,i,
COc1cccc(-n2c(CNc3ccc(F)cc3)nnc2SCC(N)=O)c1,0,.,5,2,6,-8,11,i,
O=C(Nc1ccc(Cl)cc1)Nc1ccc2c(c1)N1CCN=C1S2,.,51,-9,4,-13,-9,-9,i,
Cc1nc2ccccc2c(=O)n1NC(=O)c1ccc(Cl)c([N+](=O)[O-])c1,5,-129,-1,-3,1,-1,10,i,
CCc1ccc2nc(SCC(=O)N(CC)CC)c(C#N)cc2c1,-6,.,3,2,-5,-7,-9,i,
Nc1nccnc1C(=O)OCC(=O)NCCc1ccc(S(N)(=O)=O)cc1,-9,-2,.,-10,0,-16,.,i,
CCC(=O)c1ccc2ncccc2c1,-2,-6,5,-1,-2,.,3,i,
CCc1cc2c(COC(=O)c3cccc(NS(C)(=O)=O)c3)cc(=O)oc2cc1O,-1,-8,-44,-5,-5,-4,-7,i,
Cc1ccccc1CN1CCC(CNC(=O)Nc2ccc(F)cc2F)CC1,-3,1,-4,0,1,-14,10,i,
NC(=O)c1cc(C(=O)Cc2ccc(Cl)cc2)c[nH]1,-1,-5,2,3,5,-6,0,i,
Cc1ccc(C(=O)NC2c3ccccc3-c3ccccc32)cc1,82*,-24,3,4,-7,-11,47,i,
O=C(O)CC(CCc1ccccc1)OC1OC(CO)C(O)C(O)C1O (stereo unspecified),-3,.,.,3,4,-9,.,.,
CCOC(=O)Nc1ccc(S(=O)(=O)NCc2ccccc2)cc1,-16,.,3,6,-10,-15,6,i,
CC(C)Cn1c(=O)c(C(=O)Nc2ccccc2S(N)(=O)=O)c(O)c2ccccc21,54,.,-4,0,-4,-1,3,i,
C#CCOCCOCCOCCNc1nc(N2CCN(C(=O)[C@H](CO)n3cc([C@@H](N)C(C)C)nn3)CC2)nc(N2CCN(C(=O)[C@H](CO)n3cc([C@@H](N)C(C)C)nn3)CC2)n1,.,13,.,2,2,27,.,.,
CC1=NN(c2ccccc2C)C(=O)C1,.,-141,.,7,9,0,.,.,
Cc1ccc(NC(=O)c2ccc3nc[nH]c3c2)c(O)c1,-1,0,-17,2,4,-22,-2,i,
OCCN1CCN(c2nnc(-c3ccccc3)c3ccccc23)CC1,-3,19,6,-5,-2,-12,-2,i,
O=C1c2ccccc2CN1CCNS(=O)(=O)c1ccc(Cl)cc1,-18,.,-11,1,-1,-10,1,i,
CCOc1ccc(N(CC(=O)Nc2ccc(CC)cc2)S(=O)(=O)c2c(C)[nH]c(=O)[nH]c2=O)cc1,0,-10,.,2,0,20,.,i,
Cc1ccc2c(c1)CCCN2C(=O)c1ccco1,-4,-61,-8,-1,-1,.,-8,i,
CCOc1ccc(C2C(C(=O)Nc3ccc(F)cc3)=C(C)Nc3nc(CCCO)nn32)cc1 (stereo unspecified),.,0,-4,1,3,-13,0,i,
Cc1c(NS(=O)(=O)c2cccc3nsnc23)c(=O)n(-c2ccccc2)n1C,4,3,0,1,1,2,19,i,
CSc1ncc(Cl)c(C(=O)Nc2ccccc2[N+](=O)[O-])n1,-11,-1,-12,-3,1,-6,-4,i,
CCOC(=O)c1oc2c(c1C)/C(=N/O)CCC2,-3,-161,0,-10,-9,1,-8,i,
COc1cccc(C=NNC(=O)c2ccncc2)c1O,.,12,.,1,-2,-17,.,.,
CC(C)=C1C2CCC1C(C(=O)NCCc1ccccc1)C2C(=O)O (stereo unspecified),0,.,1,0,3,-12,-2,i,
O=C(Nc1ccc2c(c1)OCCO2)C(c1ccnc2ccccc12)N1CCC(Cc2ccccc2)CC1 (stereo unspecified),.,-11,.,-1,-20,-19,.,.,
COc1ccc(OCc2nnc(SCC(=O)NCC3CCCO3)n2N)cc1 (stereo unspecified),-10,10,.,3,2,-9,.,.,
CC(C)c1ccc(N(CC(=O)NCCSCc2ccco2)S(C)(=O)=O)cc1,-14,2,8,0,0,.,9,i,
COC(=O)c1ccc(OC(=O)c2cnccn2)cc1,-5,6,6,0,3,-16,12,i,
Cc1csc(NC(=O)CSc2nnc3c4ccccc4nc(C(C)(C)C)n23)n1,.,.,0,-11,-21,-1,10,i,
CC(C)(C)OC(=O)N(Cc1ccccc1)Cc1cccc(OCc2cccc(NC(=O)C3CC3)c2)c1,.,14,.,-5,-18,-19,.,.,
COC(=O)[C@H]1C[C@@]2(O)CN(S(=O)(=O)c3ccc(C)cc3)C[C@@]2(OC(=O)Nc2cccs2)C[C@H]1C(=O)OC,.,-18,.,-2,-2,-1,.,.,
Cc1nn(Cc2ccc(Cl)c(Cl)c2)c(C)c1NC(=O)c1cc(-c2ccco2)on1,48,?,17,-13,-12,18,-5,i,
O=C(NN=Cc1ccccc1OC(F)F)c1ccc(NS(=O)(=O)c2cccs2)cc1,26,-1,.,0,1,-14,.,.,
CC(C)(C)OC(=O)NC(CCNC=C1C(=O)OC(C)(C)OC1=O)C(=O)O (stereo unspecified),-15,.,0,2,7,-2,0,i,
CCc1nc(N[C@@H](CC(C)C)C(=O)O)c2oc3ccccc3c2n1,6,.,-9,4,10,-4,-1,i,
CCOC(=O)/C(N=Nc1sc(C(=O)OCC)c(C)c1C(=O)OCC)=C(\C)O,-1,.,-5,.,.,.,-7,i,
COc1ccc(NC(=O)Nc2ccc3c(c2)C(=O)N([C@@H](C)CO)C[C@@H](C)[C@@H](CN(C)CC2CCCCC2)O3)cc1,-11,-7[16.7 µM],.,-5,-2,4&10,.,.,
CCOC(=O)c1c(C=O)c(C)n(Cc2ccccc2Cl)c1C,-3,16,-7,-1,-2,.,-1,i,
O=C(COc1ccc(Br)cc1)NCc1ccccn1,4,.,3,3,-5,-3,-13,i,
Cc1nn(Cc2ccccc2)c(Cl)c1C(=O)NCc1ccco1,-9,17,-3,3,-2,-8,1,i,
CCCC(=O)n1nc(NCc2ccc(OC)cc2)nc1NCc1ccc(OC)cc1,-6,18,0,5,-3,.,36,i,
O=C1c2cccc3c(O)ccc(c23)C(=O)N1c1ccc(Cl)cc1,16,15,?,-45,6,-14,?,i,
CSCCC(NC(=O)c1ccccc1Cl)C(=O)N(C)Cc1cccs1 (stereo unspecified),4,.,6,-4,0,7,9,i,
CC[C@]12c3[nH]c4cc(-c5ccco5)ccc4c3CCN1C(=O)[C@@H](CC(=O)NCCc1ccccn1)C[C@@H]2C(=O)N1CCN(C(=O)C2CC2)CC1,.,-17,.,-4,2,2,.,.,
# (next part)
SMILES,CSC inhib,Env fusion inh,eIF4H inh,MT1-MMP act inh,MT1-MMP act inh RFP,UUG fidelity,PABP FP inh,Rce1 inhib,others
CCOC(=O)C/C(C)=N/NC(=O)C1CC1(c1ccccc1)c1ccccc1 (stereo unspecified),.,-14,-2,-8,-3,.,11,i,
CNC(=S)Nc1ccc(OCc2ccccc2)cc1,.,-20,-2,0,4,-24,16,i,
Cc1cc(C)c(NC(=S)N(CCc2ccncc2)C(C)C)c(C)c1,-10,11,92,-1,-2,-22,-2,i,eIF4H inh retest=-3;PABP FP inh retest=4
COc1ccc(NC(=S)N2CCCN(Cc3cccc(Cl)c3)C2)cc1,-8,9,-7,3,3,-29,-6,i,
CC(=O)c1cccc(NC(=O)CN2CCN(S(=O)(=O)/C=C/c3ccccc3)CC2)c1,-9,17,.,-5,-4,11,.,.,
COc1ccc(OC)c(CNC(=O)C2CCN(S(=O)(=O)N3CCCCC3)CC2)c1,10,0,-2,1,3,-11,-8,i,
Cc1ccc(C)c(N2CCN(C(=O)CCc3nc(-c4ccccc4)no3)CC2)c1,.,7,.,2,5,5,.,.,
CCC(c1nnnn1CCc1ccccc1)N1CCN(C(=O)c2ccco2)CC1 (stereo unspecified),-5,-12,8,3,2,3,-2,i,
O=C(c1ccc(NC(=S)Nc2ccc(Cl)c(Cl)c2)cc1)N1CCCC1,47,4,-12,-1,-1,.,-1,i,
O=C(CCc1nc2sc3c(c2c(=O)[nH]1)CCCC3)NCCc1ccc(Cl)cc1,.,-6,.,-2,0,-11,.,.,
CS(=O)(=O)N1CCN(C(=O)c2ccc(-c3ccccc3)cc2)CC1,.,.,0,2,1,-11,7,i,
Cc1ccc(NC(=S)NCC2CCCO2)cc1 (stereo unspecified),-2,.,37,5,3,-2,0,i,
CCONC(=O)Nc1ccccc1[N+](=O)[O-],-7,-6,-3,2,7,.,20,i,
Cc1[nH]n(-c2ccc([N+](=O)[O-])cc2)c(=O)c1C=NCCc1c[nH]c2ccccc12,10,-14,-7,4,-12,-17,6,i,
O=C(CN1CCCCC1)c1c[nH]c2ccccc12,5,11,1,-5,4,-9,-2,i,
NS(=O)(=O)c1ccc(CCNc2nc3c(-c4cccc(F)c4)nnn3c3ccccc23)cc1,5,-217,-6,-4,0,-4,-4,i,

# Screening data (PubChem BioAssay)
